LASV entry inh: Lassa virus entry inhibition. hit rate 4.1% among 18,000. Potency, µM (highest dose often 49.2 µM), without a hit: at the highest dose activity change, negative = inhibition, most hits filed as inhibitors. Lassa virus pseudotyped entry inhibition, cell-based qHTS; control for the full effect not named in the record; many of its hits are not listed in these tables. AID 720533; active = well fitted inhibition curve with a large enough effect; inconclusive = small, poorly fitted or top-dose-only effect; inactive = no such curve, though single readings can be large or run the other way; tested in HEK293 cells; further: luciferase read-out
MARV entry inh: blocks Marburg virus binding or cell entry. Marburg virus pseudotype entry/binding inhibition, cell-based; control for the full effect not named in the record; many of its hits are not listed in these tables. Potency, µM (highest dose often 49.2 µM), for inactives: at the top dose activity change, negative = inhibition, usual class: inhibitors. hit rate 6.5% among 18,000. AID 720532; active means well fitted inhibition curve with a large enough effect; inconclusive means small, poorly fitted or top-dose-only effect; inactive means no such curve, though single readings can be large or run the other way; tested in HEK293 cells; further: luciferase read-out
* marks the source's active call; other numbers are inactive results; ? = inconclusive; . = not tested or not shown; & = joins results of further samples; ! = repeats disagree; [ ] = another dose, or the depositor's remark. On the % scale 0 is the no-effect control and ±100 the full control effect; potency means the concentration at half of the fitted maximal effect.

1	CC1(C)S[C@@H]2[C@H](N)C(=O)N2[C@H]1C(=O)O
2	CC1(C)Oc2ccc3ccc(=O)oc3c2CC1=O
3	NC(N)=NCCC[C@H](N)C(=O)NCC(=O)N[C@@H](CC(=O)O)C(=O)O
4	CC(C)n1nnc2cc(C(=O)O)ccc21
5	CC(C)C(=O)OCC(=O)[C@@]12O[C@H](C3CCCCC3)O[C@@H]1C[C@H]1[C@@H]3CCC4=CC(=O)C=C[C@]4(C)[C@H]3[C@@H](O)C[C@@]12C
6	CCn1c(-c2cccnc2)nc2cc(NC(=O)COC)cc(C(=O)N3CCc4ccccc4C3)c21
7	COc1ccc(-n2c(CNC(=O)c3cccc4ccccc34)nnc2SC)cc1
8	CCC1CN(CCNC(=O)c2cc(C)nn2CC)Cc2cc(OC)ccc2O1 (stereo not given)
9	CCOC(=O)CCN1C(=O)[C@@H]2[C@H]3[C@H](O)[C@H](O)CC(=NOCC(C)C)[C@@H]3CC[C@H]2C1=O
10	CC(=O)C1=C(C)N(Cc2ccccc2)C(=O)NC1c1cccc(C(F)(F)F)c1 (stereo not given)

Assay by compound	1	2	3	4	5	6	7	8	9	10
LASV entry inh	-1%	-2%	4%	12%	28µM*	11%	-28%	?	-25%[8.59 µM]	19%&5%[8.59 µM]
MARV entry inh	-23%	3%	4%	17%	?	-1%	0%	-13%	-11%[8.59 µM]	-7%&12%[8.59 µM]

Gathered by group: those above containing sulfur (2)
1	CC1(C)S[C@@H]2[C@H](N)C(=O)N2[C@H]1C(=O)O
7	COc1ccc(-n2c(CNC(=O)c3cccc4ccccc34)nnc2SC)cc1

Assay by compound	1	7
LASV entry inh	-1%	-28%
MARV entry inh	-23%	0%

Four entries drawn at random from the list so far:
1	CC1(C)S[C@@H]2[C@H](N)C(=O)N2[C@H]1C(=O)O
2	CC1(C)Oc2ccc3ccc(=O)oc3c2CC1=O
10	CC(=O)C1=C(C)N(Cc2ccccc2)C(=O)NC1c1cccc(C(F)(F)F)c1 (stereo not given)
6	CCn1c(-c2cccnc2)nc2cc(NC(=O)COC)cc(C(=O)N3CCc4ccccc4C3)c21

Assay by compound	1	2	10	6
LASV entry inh	-1%	-2%	19%&5%[8.59 µM]	11%
MARV entry inh	-23%	3%	-7%&12%[8.59 µM]	-1%

(more compounds)
11	O=C(O)/C=C(\CC(=O)O)C(=O)O
12	CN1CCN(c2ccc3ccccc3n2)CC1
13	CCCN1CCC(c2ccc(Nc3nc(Nc4cc(F)ccc4C(N)=O)c4cc[nH]c4n3)c(OC)c2)CC1
14	COc1cc2c(cc1Nc1nc(Nc3ccsc3C(N)=O)c3cc[nH]c3n1)N(C(=O)CN(C)C)CCC2(C)C
15	CN(C)C(=O)Nc1ccc(Cl)c(Cl)c1
16	O=C(CN1Cc2ccccc2OC(c2ccsc2)C1)N1CCN(Cc2ccc3c(c2)OCO3)CC1 (stereo not given)
17	CN1CCN(C2=Cc3ccccc3Oc3ccc(Cl)cc32)CC1
18	NC/C=C\C(=O)O
19	CC(CN1CCc2nnc(CNC(=O)c3cccc(F)c3)n2CC1)c1ccccc1 (stereo not given)
20	O=c1cc(-c2ccc(O)cc2)oc2cc(OC3OC(CO)C(O)C(O)C3O)c(C3OC(CO)C(O)C(O)C3O)c(O)c12 (stereo not given)

Assay by compound	11	12	13	14	15	16	17	18	19	20
LASV entry inh	-17%&6%	?	.	.	2%	0%	?	-10%&6%	0%	-3%
MARV entry inh	-2%&16%	?	?	?	11%	-8%	?	-15%&3%	-9%	1%

21	COC(=O)CC=C[C@@H](C)[C@@H](C=NOC[C@@H](O)COCc1ccco1)OC
22	CCCCCCCCCCCCCCCCO
23	CCCCc1cc2c(cn1)=C(OC(=O)c1cnc3ccccc3n1)C(C)(OC(=O)CC)C(=O)C=2 (stereo not given)
24	C=CCCCC=C(C)[C@H](OCc1ccc(OC)cc1)[C@H](CCC=C(C)C(N)=O)OC
25	C[C@@H]1CCC[C@H](C)N1
26	CC(C)C[C@H]1COc2cc(F)ccc2S(=O)(=O)N1
27	c1cncc(-c2nc(NCCN3CCOCC3)c3ccccc3n2)c1
28	COc1cccc(CNC(=O)c2c(OC)cc(=O)n3c2CCN(C(=O)c2cc(F)cc(F)c2)CC3)c1
29	COc1ccc2c(c1)O[C@@H](c1ccc3c(c1)OCO3)[C@H](OC(=O)N[C@H](C)C1CCCCC1)C2=O
30	COc1cccc2c1C13CC[N+]4(CC5CC5)CO[C@]1(CCC(=O)C3)C4C2

Assay by compound	21	22	23	24	25	26	27	28	29	30
LASV entry inh	3%[8.59 µM]	-3%&-18%	4%[8.59 µM]	-17%[8.59 µM]	8%[17.8 µM]	?	-18%	5%	-1%	-15%
MARV entry inh	-14%[8.59 µM]	0%&0%	11%[8.59 µM]	10%[8.59 µM]	-9%[17.8 µM]	-21%	-28%	5%	0%	-26%

31	C/C(=C(\CCOC(=O)c1ccccc1)SS/C(CCOC(=O)c1ccccc1)=C(/C)N(C=O)Cc1cnc(C)nc1N)N(C=O)Cc1cnc(C)nc1N
32	CCCC(=O)Nc1c(I)cc(I)c(CC(CC)C(=O)O)c1I (stereo not given)
33	O=C(O)c1cc(O)c(O)c(O)c1
34	C(=C\c1ccccc1)/CN1CCN(CCOC(c2ccccc2)c2ccccc2)CC1
35	CC1(C)C(O)CC(=O)[C@]2(C)C1CC(=O)[C@]1(C)C2CC[C@@]2(C)C(c3ccoc3)OC(=O)C3O[C@@]321 (stereo not given in full)
36	COc1ccc2c(c1)C(=O)[C@@H](OC(=O)NS(=O)(=O)c1ccc(C)cc1)[C@H](c1ccc(OC)c(Br)c1)O2
37	Cc1ccc2cc(CN(C(=O)c3ccc4c(c3)OCO4)C3CC3)c(N(C)C)nc2c1
38	Cc1cc(=O)c2cc(Cl)ccc2[nH]1
39	Nc1ccccc1C(=O)CC(N)C(=O)O (stereo not given)
40	CO[C@@H]1[C@@H](O[C@@H]2O[C@H](C)[C@@H](O[C@H]3C[C@@](C)(O)[C@@H](OC(=O)CC(C)C)[C@H](C)O3)[C@H](N(C)C)[C@H]2O)[C@@H](CC=O)C[C@@H](C)C(=O)/C=C/C2OC2C[C@@H](C)OC(=O)C[C@H]1OC(C)=O (stereo not given in full)

Assay by compound	31	32	33	34	35	36	37	38	39	40
LASV entry inh	-21%	-23%	11µM*	32µM*	2%	3%	13%	0%[107 µM]	-1%&4%	?
MARV entry inh	-14%	-8%	3.2µM*	8.9µM*	21%	13%	-12%	?	9%&11%	13µM*

41	CN(C)C(=O)c1ccc(-c2nc(NCc3cccs3)c3ccccc3n2)cc1
42	CN(C)C(=O)c1ccc(-c2nc(N(C)Cc3ccco3)c3ccccc3n2)cc1
43	Cc1cccc(CNc2ncnc3ccc(-c4ccccc4C#N)cc23)c1
44	Cc1cc(=O)c(C(=O)NCCCc2ccncc2)c2n1-c1ccccc1SC(c1cccs1)C2 (stereo not given)
45	Cc1ccc(C(=O)N(Cc2cc3cccc(C)c3nc2N(C)C)CC2CCCO2)cc1 (stereo not given)
46	CN1C[C@H](CNC(=O)OCc2ccccc2)C[C@@H]2c3cccc4c3c(cn4C)C[C@H]21
47	C[C@@H]1C[C@H]2[C@@H]3CCC4=CC(=O)C=C[C@]4(C)[C@@]3(F)[C@@H](O)C[C@]2(C)[C@@]1(O)C(=O)COP(=O)(O)O
48	C[C@@H]1CC2=CCCC2[C@]2(O1)C(=O)N(Cc1ccc(Br)cc1)c1cccc(Br)c12 (stereo not given in full)
49	CC(C)C1C(=O)N(Cc2cn(CCC3OCCCO3)nn2)CCS(=O)(=O)N1Cc1ccc(-c2ccc(Cl)c(Cl)c2)cc1 (stereo not given)
50	NC(=O)c1ccc(Oc2nccc(-c3c(-c4ccc(F)cc4)ncn3C3CCNCC3)n2)cc1

Assay by compound	41	42	43	44	45	46	47	48	49	50
LASV entry inh	-24%	-7%	-17%	5%	-5%	?	-17%	.	.	.
MARV entry inh	3%	7%	-12%	-2%	7%	14µM*!	-8%	-25%[8.59 µM]	?	?

51	CCOC(=O)OC(C)OC(=O)[C@@H]1N2C(=O)[C@@H](NC(=O)[C@H](N)c3ccccc3)[C@H]2SC1(C)C (stereo not given in full)
52	OC[C@@H]1[C@@H](c2ccc(F)cc2)C(c2ccc(F)cc2)=NN1c1ccccc1
53	C=C(C(=O)OC)C(NC(=O)OC)c1ccccc1 (stereo not given)
54	COCC(=O)Nc1cc(C(=O)N2CCCC2c2nccs2)c2c(c1)nc(-c1ccncc1)n2C (stereo not given)
55	CC(=O)OC(C)OC(=O)C(C)c1ccc(-c2ccccc2)c(F)c1 (stereo not given)
56	COc1ccccc1N(C)c1cc2c(c3c1ccn3C)C1CCC2C1 (stereo not given)
57	C=Cc1ccc(C(=O)N2CCc3c(cnc(C)c3CNC(=O)c3ccc4c(c3)OCO4)C2)cc1
58	COc1ccc(/C=C/C(=O)/C=C/c2ccc(OC)cc2OC)c(OC)c1
59	O=C(O)CCC1CCCC1
60	COc1cc(=O)n2c(c1C(=O)NC(C)c1ccco1)CCN(C(=O)c1[nH]c(C)cc1C)CC2 (stereo not given)

Assay by compound	51	52	53	54	55	56	57	58	59	60
LASV entry inh	-9%[17.8 µM]	-20%	-4%	-2%	15%&3%	?	-6%	3%	9%	-4%
MARV entry inh	-3%[17.8 µM]	?	1%	-6%	25%&8%	?	-10%	30%[activator]	26%	3%

61	CC(=O)Nc1cccc(O)c1
62	Cn1ccc2c(-c3cccc(C=O)c3)cc3c(c21)C1CCC3O1 (stereo not given)
63	COCCN1C=C2C(=O)C(C)(OC(=O)c3cccs3)C(=O)C=C2C=C1CCCC(=O)OC (stereo not given)
64	[N-]=[N+]=CC(=O)OC[C@H](N)C(=O)O
65	COc1ccc(O[C@H]2C=C[C@@H](c3ccccc3)O[C@H]2COC(=O)CCC(C)=NO[C@@H]2O[C@H](COC(C)=O)[C@@H](OC(C)=O)[C@H](OC(C)=O)[C@@H]2OC(C)=O)cc1
66	CCOC(=O)CN1C(=O)NC(c2cccs2)C(C(=O)OC)=C1C (stereo not given)
67	C=CC1CC2C=CCS[P@@](=O)(O1)O2 (stereo not given in full)
68	COC(=O)N[C@H](CC(C)=O)c1cccc(C(F)(F)F)c1
69	CC(C)=CCC1(CC=C(C)C)C(=O)C(C(=O)c2ccccc2)=C2OC(C)(C)CCC2(CC=C(C)C)C1=O (stereo not given)
70	COc1ccc(C2c3cc(OC)c(OC)cc3Cc3c4cc(OC)c(OC)cc4cc[n+]32)cc1OC (stereo not given)

Assay by compound	61	62	63	64	65	66	67	68	69	70
LASV entry inh	-3%	-17%	3%[8.59 µM]	1%	7%[8.59 µM]	-4%[8.59 µM]	-5%	-10%[8.59 µM]	-18%[8.59 µM]	?
MARV entry inh	22%	20%	?	-7%	-23%[8.59 µM]	-17%[8.59 µM]	4%	18%[8.59 µM]	-6%[8.59 µM]	?

71	CN(Cc1ccccc1)C(=O)[C@H](Cc1ccc2ccccc2c1)NC(=O)[C@@H]1C[C@@H](O)CN1C(=O)c1cn(C)c2ccccc12
72	O=C(O)c1ccc(-c2ccc3cc(C45CC6CC(CC(C6)C4)C5)c(O)cc3c2)cc1
73	C=C(C(C)=O)C(O)c1ccco1 (stereo not given)
74	NCC1CCCCC1CC(=O)O (stereo not given)
75	C=C/C(=C\C)C[C@@H](CC(=O)N[C@@H](CCC(=O)O)CC(=O)O)NC(=O)[C@@H]1CNCC[C@H]1NC(=O)C[C@@H](NC(=O)C[C@H](Cc1ccccc1)NC(=O)[C@@H]1CCCC[C@H]1N)C(C)C
76	Clc1ccccc1-c1nccc(-n2ccnc2)n1
77	CC(=O)OC1CC2C(C)(C)C(=O)[C@@H]3OC3[C@@]2(C)C2CC[C@]3(C)C(=CC(=O)OC3c3ccoc3)[C@]12C (stereo not given in full)
78	CC(C)C[C@@H](CC(=O)N[C@@H](CCC(=O)O)CC(=O)O)NC(=O)[C@@H]1CNCC[C@H]1NC(=O)C[C@H](CCCN)NC(=O)C[C@H](Cc1c[nH]c2ccccc12)NC(=O)[C@@H]1CCCC[C@H]1N
79	CCCCCCN(CCCCCC)C(=O)Cc1c(-c2ccc(Cl)cc2)[nH]c2ccc(Cl)cc12
80	C=CC[C@@H]1C=C[C@H](ON=C(C)CCN2CCCCc3nc(C)c(C)cc32)[C@H](CO)O1
81	COc1ccc(C2(C(=O)NCC3Cc4cccc(-c5cccnc5)c4O3)CCCC2)cc1 (stereo not given)

Assay by compound	71	72	73	74	75	76	77	78	79	80	81
LASV entry inh	?	?	-2%	-5%	0%	0%	-9%	-12%	-6%&-11%	-5%[8.59 µM]	-4%
MARV entry inh	?	?	5%	-11%	18%	-7%	-27%	12%	8%&-3%	-23%[8.59 µM]	?

Individual results from the entries so far:
Entry for compound 16 under LASV entry inh: 0%
Entry for compound 15 under MARV entry inh: 11%
Entry for compound 22 under LASV entry inh: -3%&-18%
